TRPML1 inh – qHTS for Inhibitors of the Human Mucolipin Transient Receptor Potential 1 (TRPML1) | TRPML1-inducible cells, Ca2+ dye fluorescence, FDSS; active compounds read low; inhibition of EC80 agonist-evoked calcium signal | 390,000 tested, 0.02% active | activity change, negative = inhibition, % (test concentration not listed) | AID 624415, 2012 | Mucolipin-1 (Homo sapiens), Q9GZU1; in the data active means activity change below about -50%; inconclusive means about -30% to -50%; inactive means above about -30%;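 note: stimulus is agonist 54-4 at its EC80 concentration; % is set by controls: 0 for no effect and ±100 for the full control effect; compound concentration not given in the record; the text of the record puts the active cut at -80%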
Target sequence (Q9GZU1 whole entry, looked up): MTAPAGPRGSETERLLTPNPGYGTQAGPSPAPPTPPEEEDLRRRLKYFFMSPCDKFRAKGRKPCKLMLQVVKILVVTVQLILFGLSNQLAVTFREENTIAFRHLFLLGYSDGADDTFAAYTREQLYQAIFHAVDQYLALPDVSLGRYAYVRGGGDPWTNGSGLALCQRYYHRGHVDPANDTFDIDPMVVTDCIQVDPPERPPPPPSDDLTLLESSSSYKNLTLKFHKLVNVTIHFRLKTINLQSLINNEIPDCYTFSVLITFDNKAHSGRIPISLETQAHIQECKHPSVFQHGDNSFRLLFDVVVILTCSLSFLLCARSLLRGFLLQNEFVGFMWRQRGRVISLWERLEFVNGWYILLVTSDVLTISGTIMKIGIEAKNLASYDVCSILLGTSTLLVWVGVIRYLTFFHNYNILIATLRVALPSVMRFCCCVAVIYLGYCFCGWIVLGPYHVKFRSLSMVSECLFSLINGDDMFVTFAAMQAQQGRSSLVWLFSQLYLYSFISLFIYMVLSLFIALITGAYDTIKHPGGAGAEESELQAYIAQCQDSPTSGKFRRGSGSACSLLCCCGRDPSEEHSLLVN
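Tet-induced TRPML1-DL cells loaded with Ca8 no-wash calcium dye were read kinetically on FDSS. Compound addition was followed by EC80 agonist 54-4 (4 uM final); inhibition was read over 110 s.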
Sfp PPTase inh – qHTS Assay for Inhibitors of Bacillus subtilis Sfp phosphopantetheinyl transferase (PPTase); 310,000 tested, 3.5% active; AID 1490, 2009; Potency, µM, without a hit: max response, negative = inhibition, actives largely listed as inhibitors; Biochemical Sfp PPTase activity, qHTS; active = well fitted inhibition curve with a large enough effect; inconclusive = small, poorly fitted or top-dose-only effect, or another doubt; inactive = no such curve, though single readings can be large or run the other way;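 note: the enzyme is Sfp with the accession as filed and its product quenches rhodamine fluorescence; potency is the fitted concentration of half-maximal effect; 0% = enzyme reaction without inhibitor and -100% = no enzyme wells; top concentration of the series not given in the record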
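Compounds were incubated with enzyme (final 15 nM) for 15 min at room temperature before substrate addition started the reaction. Fluorescence at 525 nm excitation, 598 nm emission was recorded immediately and after 30 minutes.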
TRPML1 agonist – qHTS for Agonists of the Human Mucolipin Transient Receptor Potential 1 (TRPML1); AID 624414, 2012; Mucolipin-1 (Homo sapiens), Q9GZU1; TRPML1-expressing cells, Ca2+ dye fluorescence, FDSS; host cell line not named in the record; reference of the full effect not given here; 410,000 tested, 0.12% active; activation, % (concentration not given with the values); in the data active = activation above about 50%; inconclusive = about 30% to 50%; inactive = below about 30%; note: 0% is about no effect; the text of the record puts the active cut at 80%
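TRPML1-DL cells, Tet-induced overnight (~16 h, 37 degrees C), loaded 45-90 min at room temperature with Ca8 no-wash calcium dye plus quencher. FDSS fluorescence: 10 s baseline, compound pin-transfer, 110 s agonist read, then EC80 54-4 (4uM final) and 110 s antagonist read.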
PINK1 modulator – A Quantitative High throughput Screen to Identify Chemical Modulators of PINK1 Expression | AID 624263, 2012 | PINK1 immunofluorescence, high-content cytometry, 24 h | 410,000 tested, 0.2% active | Potency, µM (titrated, usually from 76.6 µM), for the others: at the highest dose activation (PINK1 increase), usual class: activators; active = well fitted activation curve with a large enough effect; inconclusive = small, poorly fitted or top-dose-only effect; inactive = flat fitted curve, though single readings scatter; cell line not stated here;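 note: potency is the fitted concentration of half-maximal effect; % of control where 0% means no effect; nearly all actives have a fitted effect of over 65% in size; a mitochondrial uncoupler was the plate control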
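Compound titrations (5 concentrations, 24 h) on a stable cell line; DMSO and CCCP controls. Endpoint: fixed-cell PINK1 immunofluorescence with mitochondrial, cell and nuclear markers, scanned by microplate cytometer.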
ClpP mod – qHTS Assay for Activators of ClpP; ATP-dependent Clp protease proteolytic subunit (Bacillus subtilis (strain 168)), P80244; purified B. subtilis ClpP, FRET peptide cleavage, 20 min; Potency, µM (titrated, usually from 57.5 µM), for the others: top-dose activity change, negative = active; 340,000 tested, 1.9% active; AID 651965, 2013; active = well fitted falling curve with a large enough effect; inconclusive = small, poorly fitted or top-dose-only effect; inactive = no such curve, though single readings can be large or run the other way; note: potency is the fitted concentration of half-maximal effect; the source files actives as falling curves though it sought activators and does not explain the sign; nearly all actives have a fitted effect of over 65% in size; many hits overshoot -100%
Target sequence (P80244 whole entry, looked up): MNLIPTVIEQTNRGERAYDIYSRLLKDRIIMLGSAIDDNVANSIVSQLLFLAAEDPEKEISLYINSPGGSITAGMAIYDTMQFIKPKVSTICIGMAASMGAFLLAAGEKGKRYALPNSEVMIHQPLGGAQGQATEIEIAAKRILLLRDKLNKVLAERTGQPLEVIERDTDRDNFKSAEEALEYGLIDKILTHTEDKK
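Purified B. subtilis ClpP, 10 microg/mL final in Tris/HCl pH8 with KCl, BSA, glycerol and Tween-20, cleaved an Abz/nitrotyrosine-quenched decapeptide. Fluorescence (ex 320, em 430) was read at 0 and 20 min at room temperature. Delta was normalized to 5.8 microM ADEP and DMSO/no-enzyme controls.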
Menin-MLL FL inh – qHTS Assay for Inhibitors Targeting the Menin-MLL Interaction in MLL Related Leukemias: Competition With Fluorescein Labeled MLL-derived Peptide; Fluorescence polarization, fluorescein-MLL peptide displacement from menin; FP activity change, % at 61.4 µM; 290,000 tested, under 10 active; inconclusive = falling polarisation curve, or a change in total fluorescence; inactive = total fluorescence flat and polarisation flat or rising; no compound was filed as active; the % refers to the polarisation; negative = inhibition;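 note: % of control where 0% means no effect; inhibitors lower the polarisation; unlabelled MLL peptide was the positive control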
TRPV1 PAM – HTS Assay for Compounds that Act as Potentiators of the Vanilloid Receptor 1; TRPV1-expressing cells, Fluo-8 calcium influx, capsaicin EC20 potentiation; host cell line not named in the record; control for the full effect not named in the record; potentiation, % at 8.33 µM; 320,000 tested, 0.02% active; AID 540277, 2011; active means potentiation above 80%; inconclusive means 30% to 80%; inactive means below 30%; note: 0% is about no effect
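Cells expressing TRPV1 were dye-loaded with Fluo-8 and read kinetically: 10 s baseline, 3 min after compound (agonist portion), then 2 min after EC20 capsaicin (allosteric enhancer portion). Calcium-bound dye fluorescence at 480/520 nm.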
* marks the source's active call; other numbers are inactive results; ? = inconclusive; · = not tested or not shown; & = joins results of further samples; [ ] = remark or other dose.

SMILES	TRPML1 inh	Sfp PPTase inh	TRPML1 agonist	PINK1 modulator	ClpP mod	Menin-MLL FL inh	TRPV1 PAM
Cc1ccc(C)c(NC(=O)Cn2cc(S(=O)(=O)NC(C)C)c(S(=O)(=O)NC(C)C)c2)c1	4.0	·	0.3	4.9%	0.9%	·	·
COc1cccc(/C=C/C(=O)OCC(=O)c2ccccc2)c1OC	0.8	·	2.4	-0.6%	-25.4%	·	·
COc1ccc(C2CC(c3cccs3)=NN2C(=O)CSc2nncn2C)cc1OC (configuration not stated)	-4.6	-3.5%	0.0	0.7%	-6.3%	-3.8	-19.0
CC1(C)Oc2ccc3ccc(=O)oc3c2CC1O (configuration not stated)	17.2	0.8%&6.6%	0.6	0.1%&2.1%	4.1%	1.6&-0.6	-6.7
CN1C(=O)C(=C2CCCCCC2)SC1=S	-3.6	56.2µM*	-1.2	-2.6%	1.4%	5.1	-9.5
Cc1onc(-c2c(F)cccc2Cl)c1C(=O)OCC(=O)NC(=O)NCC(C)C	6.9	24.9%	1.1	1.8%	·	2.5	-19.2
CC1(C(=O)NS(=O)(=O)c2cccc(Cl)c2)CCN1C(=O)c1cccc(F)c1 (configuration not stated)	-17.5	·	-0.2	-0.9%	0.1%	·	·
CC(=O)Nc1ccc(/C=N/NC(=O)CC2CCCCC2)cc1	-13.0	·	-0.2	4.4%	0.5%	·	·
COCCn1c(Cc2cccn2C)nnc1SCC(=O)Nc1nccs1	3.8	-14.3%	-0.4	-1.9%	·	1.4	12.8
CCSc1nc2sc3c(c2c(=O)n1-c1ccccc1)CCN(C(C)C)C3	7.1	-4.0%	0.4	2.6%	3.0%	?	-5.1
COC(=O)N/N=C1\CCCc2c(C)cc(C)cc21	-8.7	15.1%	-0.5	-0.1%	·	-3.1	27.2
CSc1ccc(CN2CCC(C)(Oc3ccc(-n4ccnc4)cc3)C2)cc1 (configuration not stated)	·	·	-0.8	2.6%	-0.2%	·	·
O=C(COC(=O)CCC(=O)Nc1nccs1)NCc1ccco1	-10.7	1.5%	1.6	-1.9%	-0.6%	1.7	-16.2
CCS(=O)(=O)N1CCc2cc(C(=O)Nc3cccc(NC(C)=O)c3)ccc21	-4.2	·	0.3	0.7%	-0.8%	·	·
COc1ccc(F)c(C2C(C#N)=C(N)Oc3n[nH]c(C(C)(C)C)c32)c1 (configuration not stated)	-4.3	-1.7%	-0.6	3.1%	2.2%	6.1	-18.6
COc1ccc(-n2c(=O)c3ccccc3n(CC(=O)Nc3ccccc3OC)c2=O)cc1	1.1	0.3%	-0.5	1.5%&0.3%	-1.1%&3.3%	-0.3	-1.3
Cc1ccc(O)c(-c2n[nH]c3c2C(c2ccccc2F)N(Cc2ccco2)C3=O)c1 (configuration not stated)	11.6	·	1.8	1.8%	-2.0%	·	·
O=C(OCC(=O)N1CCCCCC1)c1cccs1	23.7	20.7%	0.1	-0.1%	-3.9%	1.3	-16.7
O=C(Nc1ccc(C(=O)OCc2cc(=O)n3ccsc3n2)cc1)c1cccc(F)c1	7.0	·	-0.5	0.5%	-1.6%	·	·
Fc1ccc(-c2cc(C(F)(F)F)nc(-n3cncn3)n2)cc1	-6.3	1.3%	-0.6	4.1%[38.3 µM]	?	1.7	-5.1
COc1ccc(NC(=O)C2CCN(S(=O)(=O)c3c(C)noc3/C=C/N(C)C)CC2)cc1	-5.6	18.2%	-0.3	0.2%	-0.4%	·	-1.9
COc1ccc(NC(=O)c2c(C)oc3ccc(O)c(CN4CCCCCC4)c23)cc1	38.8	·	0.6	1.7%	-0.7%	·	·
CCN(CC)S(=O)(=O)c1cc(C(=O)O)c(Cl)cc1Cl	11.0	3.6%	-0.9	2.4%	0.7%	-5.7	-12.6
O=C(/C=C/c1cccc(F)c1)N1CCc2ccccc21	-0.3	-2.7%	-0.1	6.5%	-5.7%	2.8	-14.1
CCCn1c(C(O)c2ccc3c(c2)OCO3)nc2ccccc21 (configuration not stated)	11.6	20.2%	1.1	0.5%[38.3 µM]	-0.4%	2.2	3.2
(list continues)
SMILES	TRPML1 inh	Sfp PPTase inh	TRPML1 agonist	PINK1 modulator	ClpP mod	Menin-MLL FL inh	TRPV1 PAM
COc1cc(OC)cc(-c2cc(N)n(S(=O)(=O)Cc3ccccc3)n2)c1	-3.1	-4.3%	-1.6	0.7%	-0.2%	-1.0	10.5
Cc1ccc(C)c(C(=O)C(C)OC(=O)c2cccn2C)c1 (configuration not stated)	7.3	1.4%	3.4	5.5%	1.1%	4.4	13.2
O=C(Nc1ccccn1)c1ccc2nc(-c3ccccc3)c(-c3ccccc3)nc2c1	·	-1.4%	·	·	·	-4.0	-1.3
CCOc1ccc(NC(=O)CN(C)S(=O)(=O)c2ccc3c(c2)CCC(=O)N3)cc1	8.7	12.1%	0.1	0.9%	0.9%	5.2	-4.0
O=C(/C=C/c1ccc(Cl)cc1)N1CCC(c2nc3ccccc3o2)CC1	-1.6	·	3.9	0.0%	1.7%	·	·
O=C(CSc1ncnc2ccccc12)Nc1cccc(S(=O)(=O)N2CCCC2)c1	13.2	13.8%	1.5	-3.0%	·	-1.9	0.6
CC(Oc1ccc(Cl)cc1Cl)c1nc(-c2ccc(NC(=O)c3ccco3)cc2)no1 (configuration not stated)	-5.7	7.7%	0.6	3.7%	-11.2%	1.0	-3.2
CCC(CC)C(=O)NCCc1cc2ccc(OC)cc2[nH]c1=O	7.0	5.9%	-1.3	-0.6%	?	-0.8	-0.8
COc1ccc(N/C=C2/CCCCC2=O)cc1	-20.1	-2.0%	-0.5	-1.0%	-0.3%	2.8	4.8
CC1CCCN(CC(O)CN2CCN(CC(O)CN3CCCC(C)C3)C(C)C2)C1 (configuration not stated)	-2.5	·	-0.3	-1.0%	·	·	·
O=C(COC(=O)CCc1c[nH]c(=O)[nH]1)Nc1ccccc1	0.0	-6.9%	-0.7	-2.6%	3.6%	7.3	-4.6
C#CCOCCOCCOCCNc1nc(N2CCOCC2)nc(N2CCN(C(=O)Cn3cc(CCCN=C(N)N)nn3)CC2)n1	-0.7	13.2%	-0.7	2.8%	0.9%	-1.6	-1.3
O=C1N(Cc2cccc(Cl)c2)C[C@@H]2C[C@@H](c3cccn3-c3nccs3)N3CCC[C@@]123	30.9	5.5%	0.5	-0.4%	·	-3.9	7.1
O=C(Nc1ccccc1Cl)c1cc2ccccc2o/c1=N\O	-8.4	6.3%	-0.6	1.4%	·	1.8	5.8
O=[N+]([O-])c1ccc(O)c2cccnc12	32.4	-2.9%	1.3	8.4%	·	?	5.0
Cc1ccc(Cn2c([N+](=O)[O-])cnc2C)cc1	6.4	-4.4%	0.6	-2.2%	-1.1%	0.0	6.2
O=C(Nc1ccc(S(=O)(=O)N2CCc3ccccc32)cc1)c1ccco1	4.6	-12.5%	0.3	?	-0.3%	4.0	3.1
CC(=O)N1CCOc2ccc(S(=O)(=O)N3CCC(C)CC3)cc21	-59.2*	6.8%	0.2	2.6%	-0.1%	-2.0	14.7
COc1ccccc1C1CCN(Cc2cccc3ccccc23)CC1	37.4	9.1%	-0.8	?	-3.1%	6.0	9.3
CCN(CC(=O)Nc1ccccc1C(F)(F)F)C(=O)c1oc2c(Cl)cccc2c1C	-5.2	·	0.9	-2.5%	35.5µM*	·	-11.1
CCOc1ccccc1NC(=O)COC(=O)C(CC(C)C)N1C(=O)C2CC=CCC2C1=O (configuration not stated)	35.1	3.2%	3.9	-0.1%	-4.5%	1.0	-24.6
COc1ccc2oc(C(=O)N3CCCc4ccccc43)c(C)c2c1	-6.3	·	1.3	1.9%	-0.5%	·	10.3
Cc1c(NS(=O)(=O)c2cc(C(=O)O)ccc2Cl)c(=O)n(-c2ccccc2)n1C	4.2	11.3%	-0.3	0.0%	·	1.5	4.3
CC(C)Cc1csc(NC(=O)c2ccc(Cl)cc2)c1C(=O)O	7.9	12.8%	2.8	14.1%	-1.3%	-0.4	2.5
O=C(Nc1nc2cc3c(cc2s1)OCCO3)C1=COCCO1	-6.9	-1.3%	0.2	0.8%	-11.9%	4.1	-27.8
Further structures follow:
SMILES	TRPML1 inh	Sfp PPTase inh	TRPML1 agonist	PINK1 modulator	ClpP mod	Menin-MLL FL inh	TRPV1 PAM
Cc1c(Br)c([N+](=O)[O-])nn1C(C)C(=O)NCC1CCCO1 (configuration not stated)	-14.3	-11.7%	-0.5	0.1%	-1.0%	-0.2	0.8
COc1ccccc1NC(=O)CSc1ncc2c(n1)-c1ccccc1N(Cc1ccccc1C)S2(=O)=O	11.9	·	0.9	3.6%	-6.8%	·	·
CN(CC(=O)N1CCc2ccccc21)S(=O)(=O)c1cccc2cccnc12	-3.1	12.8%	-0.3	1.5%	-0.8%	3.7	·
O=C(COc1coc(CN2CCc3ccccc3C2)cc1=O)Nc1ccc(Cl)cc1	-12.0	·	0.2	0.7%	1.3%	·	4.7
COc1ccc(C(CNC(=O)Cc2ccc(Cl)cc2)N2CCOCC2)cc1 (configuration not stated)	-5.8	·	0.0	0.7%	0.7%	·	·
CCN(CC(=O)Nc1ccc(NC(C)=O)cc1)C(=O)c1cccnc1Sc1ccc(C)c(C)c1	5.0	·	0.7	0.9%	-1.0%	·	12.3
CCOC(=O)C1CCCN(C(=O)c2cn(C)c3ccc(S(=O)(=O)N(C)C)cc3c2=O)C1 (configuration not stated)	-2.4	22.0%	1.2	1.1%	-5.8%	0.5	·
CCn1c(CS(=O)Cc2ccc(Cl)cc2Cl)nnc1SCc1c(Cl)cccc1Cl (configuration not stated)	11.2	-13.8%	2.0	-0.8%[38.3 µM]	-1.7%	2.2	-3.4

Bioassay records as filed in PubChem BioAssay.
